YB-1 expression – YB-1 expression inhibition; U2OS, qRT-PCR YB-1 vs CDIP delta delta Cp, 16 h; hits give high values; zero = DMSO, each unit about twofold; 0.37% of 30,000 active; delta delta Cp (YB-1 minus CDIP) (concentration not given with the values);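 active = delta delta Cp rounded down to an integer at or above 3, about 3 SD of DMSO wells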;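 note: higher means less YB-1 transcript or more CDIP transcript relative to DMSO; stock transfer was 100 nL into about 100 µL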
Starred values were filed as active, the others as inactive.

SMILES	YB-1 expression
NC(=O)[C@H]1[C@@H]2C(=O)O[C@@H](c3ccccc3)[C@@H](c3ccccc3)N2[C@@H](c2ccc(O)cc2)[C@]12C(=O)Nc1ccc(C#CC3=CCCCC3)cc12	-0.0068
NC(=O)[C@@H]1[C@H]2C(=O)O[C@H](c3ccccc3)[C@H](c3ccccc3)N2[C@H](c2ccc(O)cc2)[C@@]12C(=O)Nc1ccc(C#CCCO)cc12	0.33
C=CCNC(=O)[C@@H]1[C@H]2C(=O)O[C@H](c3ccccc3)[C@H](c3ccccc3)N2[C@H](c2ccccc2OCCO)[C@@]12C(=O)Nc1ccccc12	0.19
C[C@H](CO)N1C[C@H](C)[C@H](CN(C)C(=O)c2cc(-c3ccccc3)on2)OCc2cn(nn2)CCCC1=O	-0.36
C[C@@H]1CN([C@H](C)CO)C(=O)CCCn2cc(nn2)CO[C@H]1CN(C)S(=O)(=O)c1ccc(F)cc1	-0.5
O=C(CCCCCCC(=O)Nc1ccccc1O)N/N=C/c1ccccn1	-0.28
C[C@H]1CN([C@@H](C)CO)C(=O)CCCn2nncc2CO[C@@H]1CN(C)C(=O)Nc1cccc2ccccc12	-0.18
O=C(O)CCCCCCC(=O)N/N=C/C1CCCCC1	1.4
C[C@@H]1CN([C@H](C)CO)C(=O)CCCn2cc(nn2)CO[C@H]1CN(C)Cc1ccc2cccnc2c1	-0.025
[N-]=[N+]=NCc1ccccc1C[C@@]1(C(=O)N2CCCCC2)N=C(c2ccc(OCCCO)cc2)O[C@@H]1c1ccccc1	0.036
O=C(NCCN1CCOCC1)[C@@]1(Cc2ccccc2)N=C(c2ccc(OCCCO)cc2)O[C@H]1c1ccccc1	-0.52
Cc1noc(C)c1S(=O)(=O)N(C)C[C@@H]1OCc2cn(nn2)CCCC(=O)N([C@H](C)CO)C[C@@H]1C	-0.087
C[C@@H]1CN([C@H](C)CO)C(=O)CCCn2cc(nn2)CO[C@H]1CN(C)C(=O)Nc1ccccc1	-0.18
C=CCOC(=O)[C@H]1[C@@H]2C(=O)O[C@@H](c3ccccc3)[C@@H](c3ccccc3)N2[C@@H](c2ccc(OCCOC(=O)[C@@H]3C[C@@H]4C(=O)N[C@@H](CC(C)C)C(=O)N4[C@@H]3c3cccc(OCCO)c3)cc2)[C@]12C(=O)Nc1ccc(I)cc12	-0.35
C=CCNC(=O)[C@@H]1[C@H]2C(=O)O[C@H](c3ccccc3)[C@H](c3ccccc3)N2[C@H](c2ccc(O)cc2)[C@@]12C(=O)Nc1ccc(C#CC3(O)CCCCCC3)cc12	-0.29
C[C@H](CO)N1C[C@H](C)[C@H](CN(C)S(=O)(=O)c2ccc(Cl)cc2)OCc2cn(nn2)CCCC1=O	0.39
CC(C)(C)OC(=O)N1CCC[C@H]1/C=N/NC(=O)CCCCCCC(=O)O	-0.19
O=C1c2ccccc2C(=O)N1[C@@H]1CCCN(Cc2cccc(OCCO)c2)C1	0.1
C[C@H]1CN([C@@H](C)CO)C(=O)CCCn2cc(nn2)CO[C@@H]1CN(C)C(=O)Nc1cccc2ccccc12	-0.25
C[C@H]1CN([C@@H](C)CO)C(=O)CCCn2cc(nn2)CO[C@H]1CN(C)Cc1cccc(C(F)(F)F)c1	-0.013
O=C(N/N=C/c1ccncc1Br)c1ccccc1O	0.5
O=S(=O)(N[C@@H]1CCCN(Cc2ccc(OCCO)cc2)C1)c1cc(C(F)(F)F)ccc1Cl	0.38
COc1ccc(NC(=O)N(C)C[C@@H]2OCc3cnnn3CCCC(=O)N([C@H](C)CO)C[C@H]2C)cc1	-0.11
C=CCNC(=O)[C@H]1[C@@H]2C(=O)O[C@@H](c3ccccc3)[C@@H](c3ccccc3)N2[C@@H](c2ccccc2OCCO)[C@]12C(=O)N(C(=O)OCCOC)c1ccc(C#CC3(O)CCCCCC3)cc12	0.25
C[C@H]1CN([C@@H](C)CO)C(=O)CCCn2nncc2CO[C@H]1CN(C)C(=O)Nc1ccc(F)cc1	-0.14
C[C@H]1CN([C@@H](C)CO)C(=O)CCCn2nncc2CO[C@H]1CN(C)S(=O)(=O)c1ccc(-c2ccccc2)cc1	-0.19
C[C@H]1CN([C@@H](C)CO)C(=O)CCCn2cc(nn2)CO[C@H]1CN(C)C(=O)c1cc(-c2ccccc2)on1	-5.2
C[C@H](CO)N1C[C@H](C)[C@H](CN(C)S(=O)(=O)c2ccccc2C#N)OCc2cn(nn2)CCCC1=O	-0.33
C=C[C@H](OC)[C@@H](OC(=O)Nc1ccc(SC)cc1)c1ccc(OCCO)cc1	-0.51
Cc1cccc(CN(C)C[C@@H]2OCc3cn(nn3)CCCC(=O)N([C@@H](C)CO)C[C@H]2C)c1	-0.062

The final six records of the part before are carried over, then new ones follow:
SMILES	YB-1 expression
C[C@H]1CN([C@@H](C)CO)C(=O)CCCn2nncc2CO[C@H]1CN(C)C(=O)Nc1ccc(F)cc1	-0.14
C[C@H]1CN([C@@H](C)CO)C(=O)CCCn2nncc2CO[C@H]1CN(C)S(=O)(=O)c1ccc(-c2ccccc2)cc1	-0.19
C[C@H]1CN([C@@H](C)CO)C(=O)CCCn2cc(nn2)CO[C@H]1CN(C)C(=O)c1cc(-c2ccccc2)on1	-5.2
C[C@H](CO)N1C[C@H](C)[C@H](CN(C)S(=O)(=O)c2ccccc2C#N)OCc2cn(nn2)CCCC1=O	-0.33
C=C[C@H](OC)[C@@H](OC(=O)Nc1ccc(SC)cc1)c1ccc(OCCO)cc1	-0.51
Cc1cccc(CN(C)C[C@@H]2OCc3cn(nn3)CCCC(=O)N([C@@H](C)CO)C[C@H]2C)c1	-0.062
Cc1noc(C)c1NC(=O)N(C)C[C@@H]1OCc2cnnn2CCCC(=O)N([C@@H](C)CO)C[C@H]1C	0.15
O=C1O[C@@H](c2ccccc2)[C@@H](c2ccccc2)N2[C@@H](c3ccc(O)cc3)[C@]3(C(=O)Nc4ccccc43)[C@@H](C(=O)O)[C@H]12	0.1
CC(C)NC(=O)N(C)C[C@@H]1Oc2ncc(C#CCN(C)C)cc2C(=O)N([C@H](C)CO)C[C@@H]1C	-0.32
C[C@H]1CN([C@@H](C)CO)C(=O)CCCn2cc(nn2)CO[C@H]1CN(C)C(=O)C1CC1	-0.033
COC(=O)CCCCCCC(=O)Nc1ccc(C2OC(CSc3ccccn3)CC(c3ccccc3)O2)cc1 (stereo not drawn)	0.17
O=C(NO)c1cccc(C(=O)N/N=C/c2cc3ccccc3n2S(=O)(=O)c2ccccc2)c1	0.086
O=C(N/N=C\c1ccc2ccccc2c1O)c1ccccc1O	0.35
C[C@@H]1CN([C@H](C)CO)C(=O)CCCn2nncc2CO[C@@H]1CN(C)C(=O)c1ccc2ccn(C)c2c1	0.08
C[C@H](CO)N1C[C@H](C)[C@H](CN(C)C(=O)C2CC2)OCc2cn(nn2)CCCC1=O	-0.19
O=C(CCCCC(=O)N/N=C/c1ccccc1[N+](=O)[O-])NO	-0.26
COC(=O)[C@@]1(CCC(=O)OC(C)(C)C)N=C(c2ccc(OCCCO)cc2)O[C@H]1c1ccccc1CN=[N+]=[N-]	-0.24
C[C@H](CO)N1C[C@H](C)[C@H](CN(C)C(=O)Nc2ccc(F)cc2)Oc2ncc(C#CCN(C)C)cc2C1=O	0.087
C[C@@H]1CN([C@@H](C)CO)C(=O)CCCn2cc(nn2)CO[C@@H]1CN(C)Cc1ccc(C(=O)O)cc1	-0.36
C[C@H](CO)N1C[C@H](C)[C@@H](CN(C)Cc2ccc(-c3ccccc3)cc2)OCc2cnnn2CCCC1=O	0.25
O=C(NCc1ccc(F)cc1)[C@H]1C[C@H]2C(=O)N[C@@H](Cc3ccccc3)C(=O)N2[C@H]1c1cccc(OCCO)c1	0.42
C[C@H](CO)N1C[C@H](C)[C@H](CN(C)C(=O)Nc2cccc3ccccc23)OCc2cnnn2CCCC1=O	0.12
COC(=O)N(C)C[C@@H]1OCc2cnnn2CCCC(=O)N([C@H](C)CO)C[C@@H]1C	-0.12
C[C@H]1CN([C@@H](C)CO)C(=O)CCCn2cc(nn2)CO[C@@H]1CN(C)C(=O)C1CC1	-0.45
O=C(N/N=C/c1ccc(O)cc1O)c1ccccn1	0.12
C[C@H]1CN([C@@H](C)CO)C(=O)CCCn2cc(nn2)CO[C@@H]1CN(C)C(=O)Nc1cccc(F)c1	0.16
COc1ccc(/C=N/NC(=O)c2cccc(C(=O)NO)c2)cc1	-0.2
C[C@@H]1CN([C@@H](C)CO)C(=O)CCCn2nncc2CO[C@H]1CN(C)C(=O)C1CCCCC1	-0.4
O=C(N/N=C/c1cccc(Br)c1)c1ccccn1	-0.033
Cc1ccc(S(=O)(=O)N(C)C[C@H]2OCc3cn(nn3)CCCC(=O)N([C@H](C)CO)C[C@@H]2C)cc1	-0.081
C[C@H]1CN([C@@H](C)CO)C(=O)CCCn2cc(nn2)CO[C@H]1CN(C)C(=O)OCc1ccccc1	0.33
Cc1noc(C)c1S(=O)(=O)N(C)C[C@H]1OCc2cnnn2CCCC(=O)N([C@H](C)CO)C[C@@H]1C	0.21
COC(=O)[C@@]1(Cc2ccccc2)N=C(c2ccc(OCCCO)cc2)O[C@H]1c1ccccc1	-0.15
COc1ccccc1S(=O)(=O)N(C)C[C@H]1OCc2cn(nn2)CCCC(=O)N([C@H](C)CO)C[C@@H]1C	0.13
Cc1ccc(S(=O)(=O)N(C)C[C@@H]2Oc3ncc(C#CC(C)(C)O)cc3C(=O)N([C@H](C)CO)C[C@@H]2C)cc1	-0.13
C[C@H](CO)N1C[C@H](C)[C@H](CN(C)S(=O)(=O)c2cccc(F)c2)OCc2cnnn2CCCC1=O	0.3
COc1ccc(S(=O)(=O)N(C)C[C@@H]2Oc3ncc(C#CC(C)(C)O)cc3C(=O)N([C@H](C)CO)C[C@@H]2C)cc1	-0.081
Cc1cccc(CN(C)C[C@@H]2Oc3ncc(Br)cc3C(=O)N([C@H](C)CO)C[C@@H]2C)c1	-0.031
C[C@H](CO)N1C[C@H](C)[C@H](CN(C)S(=O)(=O)c2ccc(C#N)cc2)Oc2ncc(C#Cc3cccc(F)c3)cc2C1=O	-0.016
C[C@@H]1CN([C@H](C)CO)C(=O)CCCn2nncc2CO[C@@H]1CN(C)C(=O)c1cc(-c2ccccc2)on1	-0.022
Cc1ncc(CO)c(/C=N/NC(=O)CCCCCCC(=O)O)c1O	-0.33
C[C@@H]1CN([C@@H](C)CO)C(=O)CCCn2cc(nn2)CO[C@H]1CN(C)C(=O)CCCN(C)C	-0.011
C=CC[C@]1(C(=O)OC)N=C(c2ccc(OCCCO)cc2)O[C@H]1c1ccccc1CN=[N+]=[N-]	-0.012
COc1ccc(-c2cnc3c(c2)C(=O)N([C@H](C)CO)C[C@H](C)[C@H](CN(C)S(=O)(=O)c2ccc(OC)cc2)O3)cc1	0.08
C=C(C)[C@@H]1CC=C(/C=N/NC(=O)c2ccccn2)CC1	-0.14
C[C@H](CO)N1C[C@H](C)[C@@H](CN(C)S(=O)(=O)c2ccc(-n3cccn3)cc2)OCc2cn(nn2)CCCC1=O	0.45
C[C@@H]1CN([C@H](C)CO)C(=O)CCCn2nncc2CO[C@H]1CN(C)C(=O)Nc1ccc(N2CCCCC2)cc1	-0.62
CCCN(C)C[C@@H]1OCc2cnnn2CCCC(=O)N([C@@H](C)CO)C[C@H]1C	-0.22
O=C(O)CCCCCCC(=O)NN=C1CCCCCC1	-0.099
O=C(NN=C1CCCCCC1)c1ccccn1	-0.75
NC(=O)[C@]1(CCS(=O)(=O)c2ccccc2)N=C(c2ccc(OCCCO)cc2)O[C@@H]1c1ccccc1	0.095

3 structures out of the list, ordered by length of the SMILES, falling.
SMILES	YB-1 expression
Cc1cccc(CN(C)C[C@@H]2Oc3ncc(Br)cc3C(=O)N([C@H](C)CO)C[C@@H]2C)c1	-0.031
C=C(C)[C@@H]1CC=C(/C=N/NC(=O)c2ccccn2)CC1	-0.14
O=C(NN=C1CCCCCC1)c1ccccn1	-0.75

Continuation:
SMILES	YB-1 expression
C/C=C/[C@H](CCn1cc(CCO)nn1)[Si](C)(C)c1ccc(OC)cc1	0.1
CC1(C)COC(CCC/C=N/NC(=O)CCCCCC(=O)O)OC1	-0.4
C[C@@H]1CN([C@H](C)CO)C(=O)c2cc(NC(=O)CCCCCC(=O)Nc3ccccc3N)ccc2O[C@@H]1CN(C)C	-0.051
O=C1c2ccccc2[C@](Cc2ccccc2I)(C(=O)NCc2ccccc2)[C@H](c2ccc(CO)cc2)N1C1CCCCC1	0.25
O=C(O)c1ccc(/C=N/NC(=O)c2ccccc2O)cc1	0.28
O=C(NO)c1cccc(C(=O)N/N=C/c2ccccc2OCCO)c1	-0.018
C[C@@H]1CN([C@@H](C)CO)C(=O)CCCn2cc(nn2)CO[C@@H]1CN(C)Cc1ccc(C(F)(F)F)cc1	-0.33
C[C@@H]1CN([C@@H](C)CO)C(=O)CCCn2nncc2CO[C@H]1CN(C)C(=O)Nc1ccc(N2CCCCC2)cc1	0.23
O=C(CCCCCCC(=O)Nc1ccccc1O)N/N=C/c1cccc(O)c1O	-0.2
C[C@@H]1CN([C@@H](C)CO)C(=O)CCCn2cc(nn2)CO[C@H]1CN(C)Cc1cccc(C(F)(F)F)c1	0.22
COc1ccc(OC(=O)N(C)C[C@H]2OCc3cn(nn3)CCCC(=O)N([C@H](C)CO)C[C@@H]2C)cc1	0.27
Cc1ccc(S(=O)(=O)N(C)C[C@@H]2Oc3ncc(-c4ccccc4)cc3C(=O)N([C@H](C)CO)C[C@@H]2C)cc1	-0.34
C[C@H]1CN([C@@H](C)CO)C(=O)CCCn2cc(nn2)CO[C@@H]1CN(C)S(=O)(=O)c1ccc(F)cc1	0.053
C[C@H]1CN([C@@H](C)CO)C(=O)CCCn2nncc2CO[C@H]1CN(C)Cc1ccc(C(=O)O)cc1	0.48
C[C@@H]1CN([C@@H](C)CO)C(=O)CCCn2nncc2CO[C@@H]1CN(C)C(=O)CCC(F)(F)F	-0.048

These rows are one share of the data. The share of hits here may be higher or lower than overall.
